Rango complex inh: qHTS Assay for Inhibitors of Rango (Ran-regulated importin-beta cargo) - Importin beta complex formation. Importin subunit beta-1 (Homo sapiens), Q14974. Rango CFP/YFP FRET sensor + importin beta, 45 min. Potency, µM (series often up to 92.2 µM), for inactives: at the top dose inhibition of complex formation. actives 0.031% (n = 340,000); active = rising FRET ratio curve, often small or poorly fitted; inconclusive = mostly compound fluorescence or quenching in the first reads; inactive = flat curves in all reads;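 further: potency means the concentration at half of the fitted maximal effect; 0% = DMSO wells and 100% = buffer wells lacking importin beta; nearly all actives have a fitted effect of over 15% in size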
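FRET biosensor (snurportin 1 IBB flanked by EYFP and cerulean), 50 nM, with compound 5 min, then 0.125 microM importin beta in PBS, 1 mM DTT, 0.02% Tween-20, 0.1% BSA. CFP/YFP ratio read after 45 min at room temperature; pre-read flags interference.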
GLA inh pH 4.5: qHTS Assay for Inhibitors of Human alpha-Galactosidase at pH 4.5. Alpha-galactosidase A (Homo sapiens), P06280. purified enzyme, 4-MU-alpha-Gal fluorescence, pH 4.5. activity change, negative = inhibition, % at 105 µM. 230,000 tested, under 10 active; inconclusive = small, poorly fitted or top-dose-only inhibition, or a rising curve; inactive = flat fitted curve, though single readings scatter; no compound was filed as active;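 further: 0% = full activity with enzyme and -100% = basal without enzyme; dose as in the result columns while the protocol names 77 µM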
Target sequence (P06280 whole entry, looked up): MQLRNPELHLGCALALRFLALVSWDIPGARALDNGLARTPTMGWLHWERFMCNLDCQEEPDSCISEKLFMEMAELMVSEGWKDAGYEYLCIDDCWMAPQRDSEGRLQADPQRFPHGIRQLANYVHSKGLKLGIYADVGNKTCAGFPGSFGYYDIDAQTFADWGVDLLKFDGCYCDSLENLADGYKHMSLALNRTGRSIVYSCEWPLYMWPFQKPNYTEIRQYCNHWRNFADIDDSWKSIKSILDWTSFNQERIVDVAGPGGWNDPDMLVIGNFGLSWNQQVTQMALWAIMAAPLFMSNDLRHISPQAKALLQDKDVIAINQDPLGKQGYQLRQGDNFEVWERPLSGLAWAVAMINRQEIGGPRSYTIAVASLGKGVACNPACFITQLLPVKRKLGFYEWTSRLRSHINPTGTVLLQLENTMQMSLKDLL
Rango release inh: qHTS Assay for Inhibitors of RanGTP induced Rango (Ran-regulated importin-beta cargo) - Importin beta complex dissociation. Snurportin-1 (Homo sapiens) + GTP-binding nuclear protein Ran (Homo sapiens) + Importin …. Biochemical FRET Rango-importin beta, RanGTP-induced dissociation. Potency, µM (highest dose often 46.1 µM), for the others: top-dose activity change, negative = inhibition. actives 0.071% (n = 340,000). AID 540253, 2011; active means falling FRET ratio curve, often poorly fitted, with flat reads before Ran was added; inconclusive means other falling curves, or compound fluorescence or quenching; inactive means flat or rising ratio curve;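 further: potency means the concentration at half of the fitted maximal effect; % of control where 0% means no effect; nearly all actives have a fitted effect of over 45% in size; -100% = wells without RanGTP and RCC1; the record marks most hits as doubtful in a second field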
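Quantitative HTS using a FRET biosensor: 0.1 uM Rango, 0.25 uM importin beta, 0.6 uM Ran, 2 mM GTP, 0.2 uM RCC1 final, PBS with DTT, Tween-20 and BSA. Post-read taken 45 min after Ran addition.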
miR-21 FLuc: qHTS Assay for Modulators of miRNAs and/orActivators of miR-21; HeLa miR-21 FLuc reporter, luciferase, 48 h; Potency, µM (highest dose often 38.3 µM), inactives show at the top dose reporter change, positive = more light; 340,000 tested, under 10 active; active = well fitted rising curve with a large enough effect; inconclusive = small, poorly fitted or top-dose-only effect; inactive = no such curve, though single readings can be large or run the other way;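 further: % of control where 0% means no effect; miR-21 action dims this reporter so a rising signal means less miR-21 action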
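Using DMEM plus 10% FBS, HeLa miR-21-FLuc cells are incubated with test compounds (final up to about 40uM) for 48 hours; firefly luciferase signal is then imaged following reagent-mediated lysis.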
Numbers without * were called inactive; ? = inconclusive; · = no result given; & = joins results of further samples; [ ] = another dose, or the depositor's remark. Not all compounds are listed, so the mix of outcomes need not match the whole.

Start of the data: the first 5 compounds, ahead of the listing:
SMILES	Rango complex inh	GLA inh pH 4.5	Rango release inh	miR-21 FLuc
COC(=O)CSc1cc(C)nc2ccc(OC)cc12	1.5%	8	-3%	-1%
Cc1ccc(NC(=O)OCCN2CCN(Cc3ccccc3)CCC2=O)cc1	0.7%	-3&-2	1%	-3%
NC(=O)C1CCN(C(=O)CN(c2cccc(Cl)c2)S(=O)(=O)c2ccccc2)CC1	-1.7%	·	-2%	-2%
O=C(Nc1ccc(F)cc1)C1CCCO1 (centres undefined)	0.1%	-4	0%	3%
CCCSc1nsc(N)n1	1.0%	0	4%	-23%

The listing (from the top)
SMILES	Rango complex inh	GLA inh pH 4.5	Rango release inh	miR-21 FLuc
COC(=O)CSc1cc(C)nc2ccc(OC)cc12	1.5%	8	-3%	-1%
Cc1ccc(NC(=O)OCCN2CCN(Cc3ccccc3)CCC2=O)cc1	0.7%	-3&-2	1%	-3%
NC(=O)C1CCN(C(=O)CN(c2cccc(Cl)c2)S(=O)(=O)c2ccccc2)CC1	-1.7%	·	-2%	-2%
O=C(Nc1ccc(F)cc1)C1CCCO1 (centres undefined)	0.1%	-4	0%	3%
CCCSc1nsc(N)n1	1.0%	0	4%	-23%
CCNC(=S)N/N=C(\C)c1ccc2ccccc2c1OC(F)F	-2.7%	-2	-10%	2%
COc1cc(NC2c3ccccc3C(=O)N2Cc2ccccc2Cl)cc(OC)c1OC (centres undefined)	6.3%	-5	24%	-1%
C=CCOC(=O)C(=O)/C=C/c1c(C)n(C)n(-c2ccccc2)c1=O	-2.5%	-8	-12%	1%
CC(C)(C)c1ccc(S(=O)(=O)Nc2cccnc2)cc1	-3.0%	4	40%	-9%
COc1cc(/C=C/C(=O)OCC(=O)NC(=O)C2COc3ccccc3O2)ccc1OC(F)F (centres undefined)	0.5%	·	-14%	·
COc1cccc(C(=O)Nc2ccc3c(cc2=O)[C@@H](NC(C)=O)CCc2cc(OC)c(OC)c(OC)c2-3)c1	?	·	-25%	25%
CCOc1ccc(N2C(=O)CC(N(CCc3ccc(S(N)(=O)=O)cc3)C(C)=O)C2=O)cc1 (centres undefined)	2.4%	0	11%	2%
COC(=O)Cc1ccc(OCC(=O)NC2CCCC2)cc1	-1.3%	·	5%	·
Cc1cc(C)c2[nH]c(=S)cc(C)c2c1	-0.4%	-2	5%	2%
CC(=O)Nc1ccc(NC(=O)C(C)OC(=O)CNS(=O)(=O)c2cccc(Cl)c2)cc1 (centres undefined)	0.4%	1	21%	-1%
COc1ccccc1N1CCN(/N=C/C=C/c2ccccc2[N+](=O)[O-])CC1	-0.2%	-6	1%	-20%
Cc1c(C(=O)OCC(=O)N(C)CC(=O)Nc2ccc(F)cc2)oc2ccccc12	-0.1%	·	6%	·
Cc1cc(C)cc(NC(=O)CN2CCC(NC(=O)c3cccc(F)c3)CC2)c1	1.1%	·	6%	1%
COc1ccc([C@H]2CC(=O)C=C(c3cc(Cl)ccc3OC)C2)cc1	-0.6%	·	15%	·
COCCn1c(-c2ccccc2)cnc1SCC(=O)Nc1cccc2ccccc12	2.3%	5	1%	-14%
C=CCN1C(=O)c2ccccc2Sc2ccc(C(=O)NCCC)cc21	-1.9%	·	4%	-6%
CN=C(N)NCCC[C@H](N)C(=O)O	0.9%	1	0%	·
Cc1noc(C)c1COC(=O)c1ccc2ccccc2n1	0.8%	-13	7%	1%
Cc1cccc(CC(=O)Nc2c3c(nn2-c2cccc(Cl)c2)CS(=O)C3)c1 (centres undefined)	2.2%	4	-4%	0%
Cc1cccc(NC(=O)c2csnn2)n1	0.1%	3	-15%	-13%
Cc1cc(CN2CCCCC2)oc1C(=O)O	-4.1%	-4	-3%	-2%
O=C1OCCN1CC(=O)N1CCc2c([nH]c3ccccc23)C1c1ccccn1 (centres undefined)	-0.7%	-1	-1%	-1%
Cc1ccc2nc(NC(=O)CSc3ncnc4c3oc3ccccc34)sc2c1	0.5%	4	-18%	-8%
COc1c(OC(C)=O)ccc(/C=C/c2ccc3cccc(OC)c3n2)c1[N+](=O)[O-]	-3.3%	-3	2%	-41%
COc1cc(C2C(C(=O)N3CCOCC3)=C(C)NC3=C2C(=O)CCC3)ccc1OC(C)=O (centres undefined)	0.8%	8	6%	2%
Cn1c(=NC(=O)CN2C(=O)C3CC=CCC3C2=O)sc2ccccc21 (centres undefined)	?	-3	?	-29%
CCc1cccc2sc(N3CCN(C(=O)c4ccc([N+](=O)[O-])o4)CC3)nc12	-2.7%	·	-20%	·
Cc1sc2ncnc(N3CCC(C(=O)N4CC(C)SC4=Nc4ccc(Cl)cc4)CC3)c2c1C (centres undefined)	1.1%	·	0%	·
CCOc1ccc(C(C)=O)cc1CN1C(=O)C(=O)N(CC)C1=O	0.5%	6	-8%	3%
O=C(CSc1nc(-c2ccccc2)cs1)NCCN1C(=O)CSC1=O	-4.6%	-3	2%	-51%
COC(=O)C(C)Sc1nnc(Cc2cc(=O)[nH]c(=O)[nH]2)n1-c1cc(C)ccc1C (centres undefined)	3.4%	4	-3%	-5%
COc1ccc(C(=O)Nc2nc3ccccc3[nH]2)cc1OC	3.0%	-6	13%	-66%
O=C(NC(=S)Nn1cnnc1)c1ccccc1Br	2.0%	6	-16%	0%
Cc1cc(C)c(C(N)=O)c(SCC(=O)c2cc(C)c(C)cc2C)n1	0.6%	-1	-5%	-19%
COc1ccc(CN2CCN(C(=O)c3cccs3)CC2)cc1	5.6%	1	13%	-7%
CN(Cc1ccccc1F)C(=O)COc1ccc(C(=O)c2ccccc2)cc1	2.1%	·	0%	9%
O=C(Nc1cccc(Cl)c1)OCc1cn(-c2ccccc2)nn1	-5.5%	-2	-12%	-15%
O=C(CN1CCN(C(=O)CNC(=O)c2ccc3c(c2)OCO3)CC1)Nc1ccc(F)cc1	-1.6%	·	6%	·
O=C(Nc1ccc2c(c1)OCCO2)c1cccnc1Oc1ccc(Cl)cc1	2.8%	-5	2%	4%
O=C(OCCCOC(=O)c1cc[n+]([O-])cc1)c1cc[n+]([O-])cc1	2.3%	·	-10%	2%
Cc1cc2nc(C)n(CCCNC(=O)Nc3ccccc3)c2cc1C	1.9%	4	-12%	2%
N#Cc1ccc(S(=O)(=O)N2CCN(CC(=O)NCC3(N4CCOCC4)CCCCC3)CC2)cc1	4.0%	·	8%	·
Cc1c(N2C(=O)C(=O)/C(=C(/O)c3ccc(Br)cc3)C2c2cccnc2)c(=O)n(-c2ccccc2)n1C (centres undefined)	-0.3%	-10	-8%	1%
COc1ccc(N2CC(C(=O)NCCc3ccc(Cl)cc3)CC2=O)c(OC)c1 (centres undefined)	2.4%	·	16%	·
N/C(=N\OC(=O)Cc1ccc(-c2ccccc2)cc1)c1cccc([N+](=O)[O-])c1	0.8%	-2	4%	-2%
CCC(C)NC(=O)Cn1c(COc2ccc(Cl)cc2Cl)nc2ccccc21 (centres undefined)	-1.7%	7	-7%	-72%
Cc1cc(C)c2cc(CN(Cc3ccco3)C(=O)NCc3ccccc3)c(=O)[nH]c2c1	3.5%	5	2%	9%
Cc1nc(C)c(C(=O)OCC(=O)N2CCN(c3ccccc3)CC2)s1	0.2%	4	6%	-3%
O=C(O)COc1ccc(NC(=O)c2ccc3c(c2)C(=O)N(Cc2ccccc2)C3=O)cc1	0.2%	·	22%	2%
O=C(Nc1ccccn1)c1ccc(C(=O)Nc2ccccn2)cc1	5.2%	·	-4%	-9%
CCC1=NN2C(=N)/C(=C/c3cc(C)n(Cc4ccccc4)c3C)C(=O)N=C2S1	?	-11	-14%	1%
CCOC(=O)N1CCN(C(=O)c2ccccc2NC(=O)COc2ccccc2)CC1	0.6%	·	1%	8%
S=c1nc[nH]c2c1ncn2C1CCCO1 (centres undefined)	-1.3%	-1	1%	22%
COc1cccc(OC)c1C(=O)Nc1ccc(Br)c(C(=O)c2ccccc2)c1	3.4%	·	8%	19%
COc1ccc(-n2ncc(C(C)NS(=O)(=O)c3cc(F)ccc3C)c2C)cc1 (centres undefined)	-1.6%	·	1%	3%
Later entries.
SMILES	Rango complex inh	GLA inh pH 4.5	Rango release inh	miR-21 FLuc
Cc1cc(NC2CCCCC2)nc(N2CCOCC2)n1	-0.3%	1	-1%	-8%
COc1cc(OC)c(NS(=O)(=O)c2cc(C(=O)OC(C)C(=O)NC3CC3)c(Cl)cc2Cl)cc1Cl (centres undefined)	-0.8%	3	-5%	-4%
Cn1c(SCC(=O)Nc2cccc(S(=O)(=O)N3CCOCC3)c2)nnc1-c1ccncc1	-3.1%	-1	1%	-1%
COc1ccc(-n2cnc3sccc3c2=O)cc1	-0.8%	·	5%	-14%
Cc1ccc(C)c(Cn2nnc3c(=O)[nH]c(C4CCCN(C(=O)c5cccs5)C4)nc32)c1 (centres undefined)	1.3%	·	-3%	-7%
O=C(Nc1ccc2[nH]ccc2c1)c1cccs1	-0.1%	6	12%	-28%
Cc1nc(C(=O)NNC(=O)c2ccc(C(F)(F)F)cc2)cs1	-4.9%	-3	-9%	1%
COC(=O)c1cccc(NC(=O)c2ccc3c(c2)C(=O)N(CC2CCCO2)C3=O)c1 (centres undefined)	0.0%	-6	11%	3%
Cc1ccc([N+](=O)[O-])cc1S(=O)(=O)Nc1ccc(C(=O)N(C)C)cc1	5.8%	4	2%	0%
CCC(C(=O)Nc1ccccc1-c1ccccc1)c1ccccc1 (centres undefined)	4.1%	0	2%	-5%
COc1cccc(NC(=O)C2C3C=CC(O3)C2C(=O)O)c1 (centres undefined)	-0.8%	·	-1%	-6%
CCN1CCN(c2ccc(S(=O)(=O)N3CCOCC3)cc2NC(=O)c2ccc(Cl)cc2Cl)CC1	0.7%	·	-6%	·
COC(=O)[C@H](CC(C)C)NC(=O)Nc1ccc2c(c1)OCCO2	6.4%	4	-9%	-28%
O=C(Nc1cc(C(F)(F)F)ccc1-n1cncn1)c1ccc(F)cc1Cl	?	·	1%	·
O=S(=O)(NN=Cc1ccc(O)cc1O)c1cc(Cl)c(Cl)cc1Cl	?	·	-6%	·
COc1cccc(C(=O)NNC(=O)Cc2cccs2)c1	-1.7%	1	-2%	0%
CCN(CCO)C(=O)C(c1ccccc1)c1ccccc1	0.6%	1	-2%	-1%
COc1cccc(OC)c1C(=O)Nc1ccc2c(c1)CCCN2S(=O)(=O)c1ccc(C)cc1	-6.4%	·	-3%	5%&0%
CCOc1ccc(S(=O)(=O)NCCC(=O)NC2CCC(C)CC2)cc1 (centres undefined)	0.2%	·	2%	·
COc1ccc([C@H]2CC(=O)C=C(c3cc4ccccc4c4ccccc34)C2)cc1	0.3%	·	6%	·
Oc1ccc(Nc2ncnc3scc(-c4ccccc4)c23)cc1	-1.3%	-14	-15%	-1%
Cc1ccccc1OCC(=O)NNC=O	-1.0%	-2[21.1 µM]	-13%	1%
O=C(N/C(=C\c1ccc(Br)cc1)C(=O)N1CCOCC1)c1ccccc1Cl	0.1%	·	8%	-5%
O=C(CCSc1nc(-c2ccco2)cc(C(F)(F)F)n1)N1CCCc2ccccc21	-0.2%	-19	-8%	0%
CCN(CC)S(=O)(=O)c1ccc(Cl)c(NC(=O)COc2ccc3c(C)cc(=O)oc3c2)c1	-4.1%	0	18%	5%
C=CCNC(=S)NCCCCC1NC(=S)N(CC=C)C1=O (centres undefined)	1.4%	2	-2%	-7%
CC1CCC(C(C)C)C(OC(=O)CSc2nc(N)cc(=O)[nH]2)C1 (centres undefined)	3.6%	0	-12%	-5%
COc1ccc(NC(=O)c2sccc2-n2cccc2)cc1	?	-6	-15%	-12%
COCCN(C(=O)CCC(=O)Nc1cc(C)on1)C(C(=O)NC1CCCC1)c1ccccc1C (centres undefined)	-3.4%	-5	10%	1%
